Screening results from PubChem BioAssay.
Shh pathway inh – Hedgehog pathway signaling inhibitors, primary screen, luminescence, Shh-LIGHT2 cells, Gli-luciferase. Shh-LIGHT2 Gli-luciferase reporter, 30 h. inhibition, % (concentration not given with the values). 2.1% of 22,000 active;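 active means replicate mean of 65% or more; inconclusive means mean lower but half the replicates past it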;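 further: pathway switched on by Shh-conditioned medium diluted 1 in 25 in low serum; 100 nL library stock added to about 40 µL; 0% = median of neutral wells and 100% = positive control level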
PD-1 reverse act – activators reversing PD-1 mediated T-cell inhibition, primary screen, luminescence, primary human CD4 T cells, PD-L1 beads | 29,000 tested, under 10 active | activation, % (no concentration beside the values) | AID 2316, 2010 | CellTiter-Glo 96 h;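 active means replicate mean of 50% or more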;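 further: 0% = median vehicle wells and 100% = positive control; 100 nL library stock added to about 50 µL; numbers are from one replicate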
MITF inh – inhibitors of MITF, primary screen, MITF inhibitor project, cell-based, luminescence; TRPM1 promoter luciferase, 24 h; inhibition, % (no concentration beside the values); 0.28% of 37,000 active;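 active means most replicates at 85% or more, or half of them and the mean; inconclusive means half reach 85% but not the mean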;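 further: human melanocyte line stably carrying TRPM1 promoter luciferase reporter; 0% = vehicle wells and 100% = a positive control; the first replicate is given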
YB-1 expression – inhibitors of YB-1 gene expression, primary screen, cell-based, fluorescence | 0.37% of 30,000 active | delta delta Cp (YB-1 minus CDIP) (test concentration not listed) | AID 434959, 2010 | U2OS, qRT-PCR YB-1 vs CDIP delta delta Cp, 16 h; stronger effect = higher value; zero = DMSO, each unit about twofold;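 active means delta delta Cp rounded down to an integer at or above 3, about 3 SD of DMSO wells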;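 further: higher means less YB-1 transcript or more CDIP transcript relative to DMSO; stock transfer was 100 nL into about 100 µL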
Numbers without * were called inactive; ? = inconclusive; nt = no result given.

SMILES	Shh pathway inh	PD-1 reverse act	MITF inh	YB-1 expression
C[C@H](CO)N1C[C@H](C)[C@H](CN(C)C(=O)NC2CCCCC2)Oc2ccc(NC(=O)CCCN(C)C)cc2C1=O	-20	-0.1	0	-0.12
C[C@@H]1CN([C@H](C)CO)C(=O)c2cc(NC(=O)CCC(F)(F)F)ccc2O[C@@H]1CN(C)Cc1ccc(C(=O)Nc2ccccc2N)cc1	nt	-2.8	15	-0.45
C[C@H]1CN([C@@H](C)CO)C(=O)c2cccc(NC(=O)c3ccc(-c4nccs4)cc3)c2O[C@@H]1CN(C)C(=O)NC1CCCCC1	-4	-0.3	-4	0.17
Cc1ccc(S(=O)(=O)N(C)C[C@H]2Oc3c(NC(=O)C4CC4)cccc3C(=O)N([C@@H](C)CO)C[C@H]2C)cc1	-14	-2.1	-9	0.05
CC1=[N+]([O-])C(C)(C)C(c2ccc(Cl)cc2)=[N+]1[O-]	49	3.0	10	-0.0036
COC(=O)c1ccccc1NC(=O)c1c(NC(=O)CN2CCCCCC2)sc2c1CCC2	nt	1.1	-4	nt
CN(C)C(=O)COc1cc2oc(=O)c3c(c2cc1Cl)CCC3	nt	1.2	-7	-0.29
Cc1nnc(SCC(=O)Nc2ccc(OC(F)(F)F)cc2)s1	nt	-0.3	-8	nt
Cc1ccc(OCC(=O)Nc2cccc3ncccc23)c(C)c1	nt	-0.4	-30	nt
Cc1noc(C)c1S(=O)(=O)N(C)C[C@@H]1Oc2c(NS(=O)(=O)c3cccs3)cccc2C(=O)N([C@H](C)CO)C[C@@H]1C	-22	-0.2	-3	-0.64
COc1ccc(NC(=O)Nc2ccc3c(c2)CC(=O)N([C@@H](C)CO)C[C@H](C)[C@@H](CN(C)Cc2ccc(Oc4ccccc4)cc2)O3)cc1	51	-4.0	32	0.39
COc1ccc(S(=O)(=O)Nc2ccc3c(c2)CC(=O)N([C@@H](C)CO)C[C@H](C)[C@@H](CN(C)C(=O)Nc2ccc(F)cc2)O3)cc1	nt	nt	-3	-0.5
O=C(Cn1nc(-c2cccc([N+](=O)[O-])c2)c2ccccc2c1=O)NCC1CCCO1 (stereo unspecified)	nt	-0.2	-13	nt
C[C@@H]1CCCCO[C@H](CN(C)CC2CCCCC2)[C@@H](C)CN([C@H](C)CO)C(=O)c2cc(NC(=O)CCCCCC(=O)Nc3ccccc3N)ccc2O1	nt	-2.4	6	-0.84
O=C(O)CNc1ncnc2oc(-c3ccccc3)c(-c3ccccc3)c12	nt	-5.2	-7	nt
O=c1cc(-c2ccccc2)oc2cc(O)ccc12	-18	-0.6	-56	0.58
C=C1C2(C)OC(=O)C34OC2C2=C(CO)C5(CCC2(C)C13C(=O)OC4C)C(O)CC(=O)OC5(C)C (stereo unspecified)	-5	1.3	15	-0.14
COc1ccccc1N1CCN(CCn2c(=O)[nH]c3c([nH]c4ccccc43)c2=O)CC1	-30	1.2	-4	0.4
C[C@H]1CN([C@@H](C)CO)C(=O)c2cc(NC(=O)CCN3CCOCC3)ccc2O[C@@H]1CN(C)Cc1ccncc1	nt	2.8	-7	-0.13
C=C1C(=O)O[C@@H]2C[C@H](C)[C@@H]3CC(=O)C(C)=C3C[C@H]12	5	-15	38	-0.09
C[C@@H]1CN([C@H](C)CO)C(=O)c2cc(NS(=O)(=O)c3cn(C)cn3)ccc2O[C@@H]1CN(C)S(C)(=O)=O	13	1.5	7	0.13
CCOc1ccc(C(Nc2cccc(C)n2)c2ccc3ccc(C)nc3c2O)cc1 (stereo unspecified)	nt	-13	49	nt
C[C@@H]1CCCCO[C@H](CN(C)C(=O)Nc2cccc3ccccc23)[C@@H](C)CN([C@H](C)CO)C(=O)c2cc(NC(=O)C3CCCCC3)ccc2O1	14	nt	0	0.011
C[C@@H]1CN([C@@H](C)CO)C(=O)c2cccc(NS(=O)(=O)c3ccc(Cl)cc3)c2O[C@@H]1CN(C)C(=O)Nc1ccc(C(F)(F)F)cc1	-9	-2.5	88*	-0.1
Cc1ccc(NC(=O)CSc2nnc(-c3ccncc3)o2)cc1C	nt	2.6	-4	nt
O=c1c(O[C@@H]2O[C@H](CO)[C@@H](O)[C@H](O)[C@H]2O)c(-c2ccc(O)c(O)c2)oc2cc(O)cc(O)c12	16	-0.4	6	0.12
COc1cc(NC(=O)c2cnn3c(C(F)(F)F)cc(-c4ccco4)nc23)c(OC)cc1Cl	nt	-0.4	6	nt
C[C@H](CO)N1C[C@H](C)[C@H](CN(C)Cc2ccc(C(=O)O)cc2)Oc2ccc(NC(=O)Nc3ccc4c(c3)OCO4)cc2C1=O	nt	1.4	2	0.021
CCN(CC)C(=O)N1CCN(C)CC1	-26	nt	18	0.36
C[C@@H]1CN([C@@H](C)CO)C(=O)c2cc(NC(=O)NC3CCCCC3)ccc2O[C@@H]1CN(C)C(=O)Nc1ccc(C(F)(F)F)cc1	1	-1.0	18	0.23
CC(C)NC(=O)N(C)C[C@@H]1Oc2c(NC(=O)c3cnccn3)cccc2C(=O)N([C@@H](C)CO)C[C@@H]1C	2	0.1	-14	-0.038
Cc1noc(C)c1S(=O)(=O)N(C)C[C@@H]1Oc2ccc(NC(=O)CCCCCC(=O)Nc3ccccc3N)cc2CC(=O)N([C@H](C)CO)C[C@H]1C	nt	1.1	-6	-0.036
CCOC(=O)c1csc(N)n1	?	-8.9	-22	-0.83
C[C@@H]1O[C@H]2Oc3c(-c4ccc(O)c(O)c4)oc4cc(O)c(c(O)c4c3=O)-c3cc(ccc3O)/C=C\C(=O)OC[C@H]3O[C@@H](O[C@H]([C@H]1O)[C@H]2O)[C@H](O)[C@@H](O)[C@@H]3O	6	0.1	-5	-0.26
C[C@@H]1O[C@@H](O[C@H]2[C@@H]3C=CO[C@@H](O[C@@H]4O[C@H](CO)[C@@H](O)[C@H](O)[C@H]4O)[C@@H]3[C@@]3(CO)O[C@@H]23)[C@H](OC(=O)/C=C/c2ccc(O)c(O)c2)[C@H](O)[C@H]1O	-23	nt	nt	0.23
C[C@H](CO)N1C[C@H](C)[C@H](CN(C)C(=O)Nc2ccccc2)Oc2ccc(NS(=O)(=O)c3ccccc3)cc2CC1=O	-48	-0.2	1	0.26
COc1ccc(S(=O)(=O)N(C)C[C@@H]2Oc3c(NS(=O)(=O)c4ccccc4)cccc3C(=O)N([C@H](C)CO)C[C@@H]2C)cc1	-30	0.0	6	-0.29
Cc1nc2ccccc2n1CC(O)COc1ccc(C(=O)O)cc1 (stereo unspecified)	nt	1.1	23	nt
CC(C)C(=O)Nc1ccc(S(=O)(=O)Nc2nccc(/C=C/c3ccccc3F)n2)cc1	nt	-0.8	16	nt
C[C@@H]1CN([C@@H](C)CO)C(=O)c2cc(NC(=O)Cc3ccccc3)ccc2O[C@H]1CN(C)C(=O)Nc1ccc(C(F)(F)F)cc1	-8	-1.0	-1	-0.31
COc1ccc(NC(=O)N(C)C[C@@H]2Oc3ccc(NS(=O)(=O)c4c(C)noc4C)cc3C(=O)N([C@@H](C)CO)C[C@@H]2C)cc1	nt	2.0	0	0.31
C=CC(C)(O)CC/C=C(\C)CCC(O)C(C)(C)O (stereo unspecified)	13	0.9	-17	0.28
C[C@@H]1CN([C@H](C)CO)C(=O)c2cc(NC(=O)NC3CCCCC3)ccc2O[C@H]1CN(C)Cc1ccc(-c2ccccc2)cc1	12	-4.1	-8	-0.039
CCNC(=O)CCc1nc(-c2ccc(OC)cc2)no1	nt	0.9	-7	nt
C[C@@H]1CN([C@H](C)CO)C(=O)c2cccc(NS(=O)(=O)c3ccc(F)cc3)c2O[C@@H]1CN(C)S(=O)(=O)c1ccc(Cl)cc1	-15	-1.2	2	-0.13
Cc1noc(C)c1NC(=O)N(C)C[C@@H]1Oc2c(NC(=O)Nc3ccccc3)cccc2C(=O)N([C@H](C)CO)C[C@@H]1C	-66	1.2	-4	0.24
CC1=C(C(=O)Nc2ccc(Cl)cc2)C(c2cccnc2)n2ncnc2N1 (stereo unspecified)	nt	3.6	-4	nt
O=C(NN1C(=O)/C(=C\c2cccnc2)SC1=S)c1ccccc1	24	2.0	-5	0.037
CS(=O)(=O)N(CC(=O)Nc1ccc(C(F)(F)F)cc1)c1ccc(Oc2ccccc2)cc1	nt	-3.1	-47	nt
CC(C)NC(=O)Nc1ccc2c(c1)C(=O)N([C@@H](C)CO)C[C@H](C)[C@H](CN(C)S(=O)(=O)c1cn(C)cn1)O2	-26	0.5	-2	0.26
COc1ccc(C2CC(=O)c3c(O)cc(O)cc3O2)cc1O (stereo unspecified)	-17	0.0	-50	0.036
COc1ccc(S(=O)(=O)N(C)C[C@H]2Oc3ccc(NC(=O)CCN4CCOCC4)cc3CC(=O)N([C@H](C)CO)C[C@H]2C)cc1	-15	0.9	4	-0.018
C[C@H]1CN([C@@H](C)CO)C(=O)c2cc(NS(=O)(=O)c3ccc(F)cc3)ccc2O[C@@H]1CN(C)CC1CCCCC1	nt	4.0	-4	-0.0015
CC(C)NC(=O)Nc1ccc2c(c1)C(=O)N([C@@H](C)CO)C[C@@H](C)[C@@H](CN(C)C(=O)NC(C)C)O2	-35	2.5	1	0.013
Cc1ccc(-c2cc(C(F)(F)F)n3nc(C(=O)NCCN4CCOCC4)c(Cl)c3n2)cc1	nt	-0.4	37	nt
C[C@@H]1CN([C@H](C)CO)C(=O)c2cccc(N(C)C)c2O[C@@H]1CN(C)S(=O)(=O)c1ccccc1	-27	-1.2	-1	0.19
Nc1ncnc2c1c1nc3ccccc3nc1n2CCc1ccccc1	nt	1.3	-44	nt
O=c1cc(O)n(Cc2ccco2)c(=S)[nH]1	-14	0.7	-6	0.46
CCc1c(O)c(Cc2ccccc2)c(=O)n(-c2nccs2)c1-c1ccccc1	-35	1.3	-11	-0.21
COc1ccccc1CCNC(=O)c1cc(-c2ccccn2)nc2ccc(Br)cc12	nt	-1.4	20	nt

Another view of part of the listing above.
Second line of a record: Shh pathway inh	PD-1 reverse act	MITF inh	YB-1 expression
Cc1ccc(S(=O)(=O)N(C)C[C@H]2Oc3c(NC(=O)C4CC4)cccc3C(=O)N([C@@H](C)CO)C[C@H]2C)cc1
  -14	-2.1	-9	0.05
CC1=[N+]([O-])C(C)(C)C(c2ccc(Cl)cc2)=[N+]1[O-]
  49	3.0	10	-0.0036
COC(=O)c1ccccc1NC(=O)c1c(NC(=O)CN2CCCCCC2)sc2c1CCC2
  nt	1.1	-4	nt
CN(C)C(=O)COc1cc2oc(=O)c3c(c2cc1Cl)CCC3
  nt	1.2	-7	-0.29
Cc1nnc(SCC(=O)Nc2ccc(OC(F)(F)F)cc2)s1
  nt	-0.3	-8	nt
Cc1ccc(OCC(=O)Nc2cccc3ncccc23)c(C)c1
  nt	-0.4	-30	nt

(further entries)
SMILES	Shh pathway inh	PD-1 reverse act	MITF inh	YB-1 expression
O=C(O)c1ccccc1C(=O)OCc1ccccc1	nt	1.2	-15	0.061
NNC(=O)CCCSc1nc2ccccc2s1	-3	0.2	52	0.38
CC(=O)N1CCc2nc(SCC(=O)Nc3cccc(C#N)c3)c(C#N)c(C(F)(F)F)c2C1	nt	-0.9	29	nt
Clc1cc(Cl)cc(Oc2nc(-c3ccccc3)ns2)c1	-11	0.3	-1	-0.15
C[C@@H]1CN([C@@H](C)CO)C(=O)Cc2cc(NC(=O)Cn3cnnn3)ccc2O[C@@H]1CN(C)Cc1ccccc1	-66	nt	-6	0.24
C[C@H](CO)N1C[C@H](C)[C@H](CN(C)CC2CC2)Oc2c(NC(=O)C3CC3)cccc2C1=O	-18	nt	-6	-0.05
COc1ccc(S(=O)(=O)N(C)C[C@@H]2OCCCC[C@@H](C)Oc3ccc(NS(=O)(=O)c4ccc(F)cc4)cc3C(=O)N([C@H](C)CO)C[C@@H]2C)cc1	21	nt	36	-0.24
O=C(O)c1cc(C23CC4CC(CC(C4)C2)C3)ccc1O	12	4.2	-8	-0.28
COc1ccc(S(=O)(=O)N(C)C[C@@H]2Oc3ccc(NC(=O)CCCCCC(=O)Nc4ccccc4N)cc3CC(=O)N([C@H](C)CO)C[C@H]2C)cc1	nt	0.9	-21	-0.61
COc1ccc(OC)c(C(=O)CSc2nnc(-c3ccncc3)n2-c2ccc(C)cc2)c1	nt	-0.6	0	nt
C[C@H](CO)N1C[C@H](C)[C@@H](CN(C)S(=O)(=O)c2ccc(F)cc2)Oc2c(NC(=O)Nc3cccc4ccccc34)cccc2C1=O	-73	-4.6	-4	-0.8
Cn1c(SCC(=O)c2ccc([N+](=O)[O-])cc2)nnc1-c1cccs1	nt	0.8	-16	nt
Cc1ccc([N+](=O)[O-])cc1NC(=O)CSC1=NCCS1	nt	1.1	-1	nt
CC(C)S(=O)(=O)c1cscc1NC(=O)c1ccc(-c2cc(C(F)(F)F)nn2C)s1	21	1.1	20	-0.14
C[C@@H]1CN([C@H](C)CO)C(=O)Cc2cc(NC(=O)CCN3CCOCC3)ccc2O[C@@H]1CN(C)CC1CCCCC1	0	nt	-9	0.083

An excerpt. The share of hits here may be higher or lower than overall.
